# Screening data: PubChem BioAssay, several laboratories
# MT1-MMP act inh = MT1-MMP (human) activation inhibition | P50281 | HT1080 RFP-PRO-GFP cells, GFP/RFP ratio fluorescence, overnight; percent of plate control window, DMSO zero | GFP/RFP ratio change, % at 20 µM | 0.061% of 360,000 active | AID 651647;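 active = GFP/RFP ratio change of at least 30% with cell ATP level not reduced by more than half and red fluorescence within 50% of control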; also: strong numbers were not always called active
#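 Compound: 20 µM single dose, 1% DMSO / System: HT1080 RFP-PRO-GFP cells / Controls: DMSO and RFP-L50D-GFP cell wells / Read-out basis: GFP/RFP fluorescence ratio / Schedule: overnight compound exposure at 37 °C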
# PABP polyA inh = blocks human PABP binding to poly(A) RNA; P11940; 1% of 290,000 active; fluorescence polarization; AID 2014; inhibition, % at 35 µM;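 active = 50% or more with normal probe brightness, or confirmed in later tests; inconclusive = above 50% with abnormal brightness, or retests that disagree; inactive = below 50% or failed in later tests; about a fifth of its hits are not listed in these tables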;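 also: calls also rest on retests at 20 µM and on dose response follow-up; controls were probe without protein and protein plus probe with vehicle; some compounds called inactive have numbers as strong as hits; many hits fall short of the cut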
# CSC inhib = cancer stem cell inhibition; cancer stem cell-like cells viability, luminescence; inhibition, % at 7.5 µM; 1.1% of 300,000 active; AID 2717;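 active = mean at 75% or more and at least half the replicates too; inconclusive = mean and replicates disagree; tested in HMLE shEcad cells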;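 also: 0% = median of negative and 100% = median of positive control wells; the first replicate is given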
# Yeast UUG start = yeast start codon fidelity modulation; S. cerevisiae UUG-firefly luciferase reporter, luminescence/redox ratio; activity score, % at 18.7 µM; 0.13% of 350,000 active; AID 602363;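 active = replicate mean at a twofold rise or more, about +100% in these data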;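 also: firefly luciferase made from a UUG start codon reports start codon fidelity; reporter light over untreated wells divided by growth signal over untreated wells; some hits fall short of that in this replicate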
# eIF4H inh = inhibitors of RNA binding by human eIF4H; eIF4H fluorescence polarization binding assay; inhibition, % at 35 µM; 0.94% of 290,000 active; AID 2012;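 active = 50% or more with normal probe brightness, or confirmed in later tests; inconclusive = above 50% with abnormal brightness, or retests that disagree; inactive = below 50% or failed in later tests; about a fifth of its hits are not listed in these tables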;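 also: calls also rest on retests at 20 µM and on dose response follow-up; 0% = protein and probe with vehicle and 100% = probe without protein; strong numbers were not always called active; many hits fall short of the cut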
# Env fusion inh = HIV envelope-mediated fusion inhibition. HeLa-JRFL Env/CEM21 cell fusion, luciferase. inhibition, % at 12.3 µM. 1.1% of 360,000 active;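 active = mean replicate inhibition score of at least 50 and every replicate individually at or above 50; inconclusive = only one of the two criteria met; inactive = mean below 50 and not all replicates reaching 50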;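 also: 0% = plate neutral controls and 100% = maraviroc near 300 nM; one replicate is shown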
# Rce1 inhib = yeast Ras-converting enzyme inhibition. Q03530. yeast membranes, quenched prenylated peptide cleavage fluorescence. calls only. 0.27% of 290,000 active. AID 2563;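 active = fall in fluorescence gain of 50% or more versus controls, with final raw signal at or below 3038400; inconclusive = same 50% fall but final raw signal above 3038400; inactive = fall in fluorescence gain under 50%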;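 also: plate controls were neutral control wells for no effect and wells lacking membranes for full effect; tested at 10 µM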
# Target sequence (Q03530 whole entry, looked up): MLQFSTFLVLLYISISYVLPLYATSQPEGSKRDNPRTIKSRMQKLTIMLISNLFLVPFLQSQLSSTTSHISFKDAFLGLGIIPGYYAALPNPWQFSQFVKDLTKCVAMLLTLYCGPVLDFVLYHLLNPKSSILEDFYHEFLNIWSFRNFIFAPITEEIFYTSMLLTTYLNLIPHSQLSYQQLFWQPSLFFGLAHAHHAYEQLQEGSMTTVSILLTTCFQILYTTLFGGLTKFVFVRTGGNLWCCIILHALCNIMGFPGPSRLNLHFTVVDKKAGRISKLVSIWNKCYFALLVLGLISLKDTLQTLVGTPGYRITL
# eIF4H inh retest = further read-out of eIF4H inh, marked with its call; inhibition, %; compound at 20 µM; confirmation average;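 mean of two retest wells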
# PABP polyA inh retest = also measured in PABP polyA inh; calls as there; inhibition, %; compound at 20 µM; confirmation repeats;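 mean of two retest wells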
# MT1-MMP act inh RFP = recorded beside MT1-MMP act inh, whose call it bears; RFP signal change, %; measured here: RFP expression control read;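 0 = vehicle wells; hits needed this value within 50% of zero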
# The depositor's hits bear a star; i = inactive; ? = inconclusive; / = no result given; & = joins results of further samples; [ ] = another dose, or the depositor's remark. Not all compounds are listed. The share of hits here may be higher or lower than overall.
SMILES,MT1-MMP act inh,MT1-MMP act inh RFP,PABP polyA inh,CSC inhib,Yeast UUG start,eIF4H inh,Env fusion inh,Rce1 inhib,others
COC(=O)C1(C(F)(F)F)N=C(C(F)(F)F)Nc2ccc(Cl)cc21 (stereo unspecified),2,4,0,-19,-14,12,-29,i,
COc1ccc(C(O)c2nc(-c3cc(F)cc(F)c3)cs2)cc1 (stereo unspecified),2,-4,/,/,-2,/,25,/,
CN(C)c1ccc(CC(=O)N2CCCC(c3cc(C(=O)Nc4ccccc4)no3)C2)cc1 (stereo unspecified),0,-3,/,/,-10,/,-40,/,
COc1ccc(NC(=O)C2CCC(=O)N2)cc1 (stereo unspecified),8,8,3,/,-6,-6,-26,i,
Cc1ccc2oc(C(=O)N3CCN(Cc4ncccc4C)CC3)c(C)c2c1,1,3,6,-2,-25,-4,-10,i,
O=C(CNC(=O)c1ccc(N2CCCC2=O)cc1)Nc1ccc(F)c(F)c1F,-3,1,/,-8,-14,/,-5,/,
CCOCCCNC(=O)c1c(C)[nH]c(C(=O)OCC)c1C,1,0,-7,-11,0,11,-51,i,
O=C(COc1ccccc1Cl)Nc1ccc(S(=O)(=O)N2CCOCC2)cc1,3,-2,3,-20,-14,4,-3,i,
Cc1ccc(S(=O)(=O)N(C)CC(=O)Nc2ccc(C)cn2)cc1,4,4,/,-6,/,/,-39,i,
COC(=O)c1ccc(CSc2nc3ccccc3c(=O)n2-c2ccc(OC)c(OC)c2)o1,-7,-8,-2,-3,-11,-6,/,i,
c1ccc(-c2csc3ncnc(-n4cnc5ccccc54)c23)cc1,0,2,-14,4,-11,-8,/,i,
COc1cccc(NC2=NCCCCC2)c1,3,4,5,-1,-17,-6,-17,i,
CCC(C)NC(=O)CNC(=S)N(Cc1ccc(F)cc1)C1CCCCC1 (stereo unspecified),-2,0,23,/,/,-2,0,i,
O=C(NCCCn1ccnc1)Nc1ccc(Cl)c(Cl)c1,3,3,4,-10,-8,-11,-1,i,
CCC(C)(C)n1nnnc1C(c1ccc2ncccc2c1)N1CCCC(C)C1 (stereo unspecified),-6,-7,10,-15,-13,18,5,i,
C[C@H](CO)N1C[C@H](C)[C@@H](CN(C)C(=O)CN2CCOCC2)Oc2ncc(-c3cncnc3)cc2C1=O,4,4,/,/,-10&7,/,-17,/,
O=C(Cc1cccc(NC(=O)C2CCN(C(=O)C3CCC3)CC2)c1)Nc1cccc(C(=O)N2CCOCC2)c1,-2,3,/,/,-5,/,-42,/,
COCCNS(=O)(=O)c1ccc2c(c1)Cc1cc(S(=O)(=O)NCCOC)ccc1-2,-1,-3,-7,4,-2,-5,-1,i,
O=C(CSc1cn(CCNC(=O)c2ccc3ccccc3c2)c2ccccc12)NCc1ccco1,-1,-13,8,24,-13,-6,/,i,
CC(C)NC(=O)CC(=O)N/N=C/c1ccccc1F,7,7,0,/,-21,-3,/,i,
C=CCN1CCN(C(=O)CSc2ccccc2)CC1,1,1,8,4,-18,-6,11,i,
COc1ccc(NC(=O)c2cccc3c2C(=O)N(CC2CCCO2)C3)cc1OC (stereo unspecified),6,1,-2,-3,-15,-8,/,i,
CCCN1C2CCCC1CC(NC(=S)NCCCOCC)C2 (stereo unspecified),-3,0,3,7,/,-2,-8,i,
S=c1[nH]nc(-c2ccc3ccccc3n2)n1-c1ccccc1Cl,2,3,-6,-15,/,0,-11,i,
c1cc2c(cc1C1CCCN1)OCCCO2 (stereo unspecified),-2,8,1,-4,-11,-15,-12,i,
CN(C)c1ccc(NC(=O)CSc2nc(C3CC3)nc3ccccc23)cc1,-5,-2,-8,/,-4,-8,-2,i,
CCCS(=O)(=O)N1CCC(C(=O)Oc2ccc(OC)cc2)CC1,1,0,4,-7,-11,5,3,i,
CC(C)(C)NC(=O)NCCc1ccccc1,-2,1,-1,-8,-27,9,-18,i,
COc1ccc(N(CC(=O)NC2CCCCCC2)S(=O)(=O)c2c(C)nn(C)c2C)cc1,0,4,0,/,-8,-9,-28,/,
CCNC(=S)NNC(=O)c1cc(Br)cs1,2,5,2,-3,/,56,-21,i,eIF4H inh retest=-14;PABP polyA inh retest=10
C[C@H](CO)N1C[C@H](C)[C@@H](CN(C)Cc2ccc3c(c2)OCO3)Oc2c(NS(=O)(=O)c3cn(C)cn3)cccc2C1=O,1,1,/,3,-9&-9,/,-18[16.7 µM],/,
COc1ccc(-c2oc3cc(O)c(OC)c(O)c3c(=O)c2OC)cc1,-5,-12,19,-7,9,4,/,i,
CC(C)OC(=O)N(C)C[C@@H]1OCc2cnnn2CCCC(=O)N([C@H](C)CO)C[C@H]1C,2,3,/,/,-9&-2&-15,/,-47,/,
CC1CCN(S(=O)(=O)c2ccc3ccccc3c2)CC1,-3,-9,-12,-5,-17,-6,-14,i,
COc1ccc(/C=C/c2nc(S(=O)(=O)c3ccccc3)c(N(C)C)o2)cc1,-8,-8,6,-24,-17,3,10,i,
COc1ccc(S(=O)(=O)N2CCC(C(=O)N3CCc4ccccc4C3)CC2)cc1Cl,2,-3,9,/,-15,2,/,/,
CC1CCN(C(=O)CN2C(=O)c3ccccc3S2(=O)=O)CC1,11,13,0,12,-12,1,6,i,
N#Cc1ccc(OCCN2C(=O)NC3(CCSC3)C2=O)cc1 (stereo unspecified),-3,-2,6,-14,-13,-6,-17,/,
CCNC(=S)Nc1ccc(N2CCCCC2)cc1,7,6,6,-10,/,-10,-5,i,
COc1ccc(NC(=S)N(CCC(C)C)C(C)c2ccncc2)cc1 (stereo unspecified),2,1,-6,0,-23,8,3,i,
CCOC(=O)C1(C)NC(c2ccccc2F)C2C(=O)N(CC)C(=O)C21 (stereo unspecified),0,6,-3,-2,-10,1,-7,i,
O=C(Cn1c(=O)oc2cc(S(=O)(=O)N3CCCC3)ccc21)NC1CCCCC1,-4,0,-2,0,-4,-8,-5,i,
CCOC(=O)c1cccc(C2=CC(=O)CC(C)(C)C2)c1,1,-3,/,-7,-7,/,?,/,
CN1CC[C@]23c4ccccc4N[C@H]1[C@]21CCN(C)[C@H]3Nc2ccccc21,4,2,/,4,1,/,-3,/,
CN(C)c1ccc(/C=N/NC(=O)C[n+]2ccccc2)cc1,-1,0,/,-9,-17,/,9,i,
COc1cc(C(c2c(O)nc(SC)[nH]c2=O)c2c(O)nc(SC)[nH]c2=O)cc(OC)c1OC,-2,3,11,-8,-6,-3,-35,i,
Brc1ccc2ncnc(Nc3ccc(N4CCOCC4)cc3)c2c1,-12,-10,-7,-3,/,7,/,i,
CCOc1ccc(N2CC(C(=O)Nc3ccc4c(c3)OCO4)CC2=O)cc1 (stereo unspecified),1,1,-8,-11,/,14,0,i,
Cc1ccc(S(=O)(=O)NC(N)=NCCc2ccc(Cl)cc2)cc1C,4,-1,10,4,-28,-7,-6,i,
O=C1C2C3c4ccccc4C(c4ccccc43)C2c2nc3ccccc3n21 (stereo unspecified),2,-19,7,-5,5,-1,/,i,
Cc1cc(C)cc(N(C(=O)c2snc(C(N)=O)c2N)C(C(=O)NCC2CCCO2)c2ccc(C)o2)c1 (stereo unspecified),-2,0,2,/,-4,2,1,i,
CCCn1c(SCc2ccccn2)nc2c1c(=O)n(C)c(=O)n2C,3,2,5,/,-12,-1,/,i,
COc1cc(C=O)ccc1OCc1ccncc1,3,4,-6,-17,/,-5,-23,i,
CCN(CC)S(=O)(=O)c1cccc(C(=O)N[C@H](C(=O)OCC(=O)Nc2ccccc2)C(C)C)c1,1,-1,-3,-10,-19,12,-59,i,
COc1ccc2cc(C(=O)NCc3ccccc3)[nH]c2c1,-2,-3,0,0,-11,-4,2,i,
COc1ccc(CC2(CO)CCN(Cc3cnn(-c4ccc(F)cc4)c3)CC2)cc1,5,-4,-6,35,28,-3,-1,i,
CC1CCCN(C(=O)CSc2nc3ncccc3[nH]2)C1 (stereo unspecified),1,-2,6,-14,/,-8,-18,i,
CCOC(=O)c1cc(C(=O)c2ccccc2O)cn2c(=O)c3c(C)c(C)sc3nc12,/,/,40,27,/,73*,/,i,eIF4H inh retest=74*;PABP polyA inh retest=41
Cc1ccc(S(=O)(=O)N2CCOCC2)cc1NC(=O)COC(=O)c1cncc(Br)c1,-3,-1,/,-8,-8,/,-3,/,
O=C(O)C1Cc2ccccc2CN1C(=O)c1ccccc1Cl (stereo unspecified),-2,-3,1,/,-7,-11,-36,/,
# (cont.)
SMILES,MT1-MMP act inh,MT1-MMP act inh RFP,PABP polyA inh,CSC inhib,Yeast UUG start,eIF4H inh,Env fusion inh,Rce1 inhib,others
COc1cc(-c2noc(-c3ccco3)n2)cc(OC)c1OC,10,-1,-7,-2,-12,-1,-82,i,
Cc1ccc(C(=O)CSc2nnc(N)s2)c(C)c1,0,3,-3,4,6,94,-22,i,eIF4H inh retest=-4;PABP polyA inh retest=3
CCC1Oc2ccc(C)cc2N(CC(=O)NCC2CCCO2)C1=O (stereo unspecified),0,6,-2,4,-6,-8,14,i,
Cc1cccc(NC(=S)N2CCC(N(C)CC3CCCO3)CC2)c1C (stereo unspecified),2,3,-1,14,-18,-2,-36,i,
O=C1C(C=NCc2ccncc2)=C(O)c2ccccc21,/,/,4,-21,-11,0,/,i,
COc1ccccc1OCCC(=O)OCC(=O)NCc1ccc(F)cc1,0,4,/,-8,0,/,/,/,
CCC(C)NC(=O)C1CCN(CCCc2ccccc2)CC1 (stereo unspecified),1,2,-2,0,-8,-2,-17,i,
COc1ccc(C(=O)N2CCN(C(=O)c3ccco3)CC2)cc1,4,3,-3,-24,-14,-7,/,i,
COc1ccc(OC)c(CN2CCN(C(=O)CNC(=O)c3ccc(C(C)(C)C)cc3)CC2)c1,6,2,/,17,-6,/,-4,/,
COc1ccccc1-n1cnc2cc(NS(=O)(=O)c3ccc(Br)cc3)ccc21,-8,-17,-11,31,-20,-5,-2,i,
COc1ccc(CCNC(=O)C(=O)NCC2OCCN2S(=O)(=O)c2ccccc2)cc1OC (stereo unspecified),1,-2,-6,-8,-21,11,/,i,
COc1ccc(/C=C/C(=O)c2ccccc2)cc1COc1ccccc1F,-13,-7,0,-2,/,6,-3,i,
FC(F)C(F)(F)C1=CC(c2cccs2)=NCCN1,-3,0,0,11,-4,-2,6,i,
CC(=O)N1CCc2cc(S(=O)(=O)NC(C(=O)NC3CCCc4ccccc43)C(C)C)ccc21 (stereo unspecified),-3,0,0,/,-9,-10,22,i,
Cc1cccc(C)c1OCCNC(=O)CCC(=O)c1ccccc1,5,5,-9,-6,/,2,0,i,
CCOC(=O)C1=CN(Cc2ccco2)S(=O)(=O)N(C)C1c1cccc(OC)c1 (stereo unspecified),1,0,/,/,-9,/,6,/,
O=C1CCC(=O)N1c1ccc(CSc2nc3ccccc3[nH]2)cc1,4,-3,4,-10,5,-2,-10,i,
COc1cc(/C=C2/SC(=O)N(CC(=O)N3CCCC3)C2=O)ccc1Oc1ccc([N+](=O)[O-])cn1,-5,-16,-5,13,-18,-2,10,i,
